Screening data (PubChem BioAssay)
Vaccinia mCherry = inhibitors of vaccinia virus infection (mCherry reporter signal). Vaccinia virus mCherry reporter infection, fluorescence; about a quarter of the inactives have no number. Potency, µM (highest dose often 36.5 µM), inactives show top-dose activity change, negative = inhibition, most hits filed as inhibitors. hit rate 0.63% among 310,000; active = well fitted inhibition curve with a large enough effect; inconclusive = small, poorly fitted or top-dose-only effect; inactive = no such curve, though single readings can be large or run the other way; tested in A549 cells; note: nearly all actives have a fitted effect of over 35% in size; inactives centre near -10
Vaccinia Venus = vaccinia inhibition (Venus reporter). Vaccinia virus Venus reporter expression, fluorescence. Potency, µM (series often up to 36.5 µM), inactives show at the top dose activity change, negative = inhibition, most hits filed as inhibitors. hit rate 0.46% among 330,000; active means well fitted inhibition curve with a large enough effect; inconclusive means small, poorly fitted or top-dose-only effect; inactive means no such curve, though single readings can be large or run the other way; tested in A549 cells; note: nearly all actives have a fitted effect of over 30% in size; inactives centre near -10
An asterisk follows results filed as active; i = inactive; ? = inconclusive; · = not tested or not shown; [ ] = dose if it differs, or a comment. % is set by controls: 0 for no effect and ±100 for the full control effect; potency is the fitted concentration of half-maximal effect.

SMILES | Vaccinia mCherry | Vaccinia Venus
C#CCOCCOCCOCCNc1nc(N2CCN(C(=O)C([C@@H](C)CC)n3cc(C(N)COC(=O)C(F)(F)F)nn3)CC2)nc(N2CCN(C(=O)C([C@@H](C)CC)n3cc(C(N)CC(C)C)nn3)CC2)n1 (stereo partly drawn) | i | 1%
COc1ccc2nc(NC(=O)CCNC(=O)c3ccccc3Cl)sc2c1 | i | -2%
CCN(CC)C(=O)COc1ccc2c3c(c(=O)oc2c1)CCCC3 | -9% | -28%
O=S1(=O)C[C@H](N2CC[C@@H](O)C2)[C@@H](COCc2ccccc2)N1 | 4% | -5%
CCc1cc(-c2n[nH]c(C)c2-c2nc3ccccc3n2C)c(O)c(CN2CCN(C)CC2)c1O | -30% | -18%
c1ccc2c(-c3c[nH]c4ccccc34)c3ccccc3nc2c1 | -24% | ?
CC(C)NC(=O)COc1ccc(S(=O)(=O)N2CCCC2)cc1 | -12% | -11%
CC(C)NC(=O)CN1CCN(Cc2nc(-c3cccs3)no2)CC1 | -3% | -6%
O=C(C1=C[C@H](c2ccccc2)C[C@H](OCc2ccc(CO)cc2)O1)N1CCN(Cc2ccc3c(c2)OCO3)CC1 | -23% | -23%
O=C1Cc2cc(NS(=O)(=O)c3ccc(Cl)cc3)cc3c2N1CCC3 | 0% | -10%
O=S(=O)(c1cnccc1N1CCN(/N=C/c2ccccc2)CC1)N1CCCCC1 | -10% | -1%
Cc1ccc(NC(=O)CSc2nnc3[nH]c(=O)cc(C)n23)cc1Cl | i | -13%

Whole records, looked up by structure.
O=C1Cc2cc(NS(=O)(=O)c3ccc(Cl)cc3)cc3c2N1CCC3 as listed: Vaccinia mCherry: 0%; Vaccinia Venus: -10%
COc1ccc2nc(NC(=O)CCNC(=O)c3ccccc3Cl)sc2c1 as listed: Vaccinia mCherry: i; Vaccinia Venus: -2%
O=C(C1=C[C@H](c2ccccc2)C[C@H](OCc2ccc(CO)cc2)O1)N1CCN(Cc2ccc3c(c2)OCO3)CC1 as listed: Vaccinia mCherry: -23%; Vaccinia Venus: -23%

Additional records follow:
SMILES | Vaccinia mCherry | Vaccinia Venus
O=C(OCc1ccccc1Cl)c1ccc(-c2nnn(Cc3ccc(F)cc3)n2)cc1 | -29% | -28%
Cc1ccc2c(c1)N(CCCC(=O)NCCCN1CCCCC1)C(=O)CO2 | -1% | -3%
OC[C@@H]1CN(Cc2cccnc2)C[C@H](n2cnc3c(N4CCCC4)ncnc32)O1 | -5% | -5%
COC(=O)c1ccccc1NC(=O)/C=N/O | -12% | -4%
C=CCNC(=O)COc1ccc(S(=O)(=O)Nc2ccc(OCC)cc2)cc1 | -14% | -7%
COc1cc(OC)c2c(C)c(Cl)c(=O)oc2c1 | i | -24%
Cc1ccc(/C=N/NC(=O)CN(Cc2ccccc2)S(=O)(=O)c2ccc3c(c2)OCCO3)cc1 | -1% | -22%
COc1ccc2c(c1OC)C(=O)N1N=C(c3ccc(Br)cc3)CC21 (stereo not drawn) | -23% | -9%
CCN1C(=O)/C(=C\c2ccncc2)SC1=Nc1ccc(C)c(C)c1 | -7% | -1%
CCCCN1CCc2nc(N3CCN(c4ncccn4)CC3)ncc2C1 | -13% | -14%
Cc1onc(-c2c(F)cccc2Cl)c1C(=O)c1ccccc1 | i | 4%
Cc1cccc(NC(=O)C2CCN(C(=O)c3ccc(F)cc3)CC2)n1 | -13% | -2%
O=C1CCc2cc(-c3csc(-c4ccc(O)cc4)n3)ccc2N1 | -25% | -10%
NC(=O)C1CCN(C(=O)CCC(=O)c2cccs2)CC1 | i | -23%
CCc1ccc(NC(=O)CSc2nc(CSc3ccc(C)cc3)cc(=O)[nH]2)cc1 | i | -11%
O=C(COC(=O)Cc1ccc(S(=O)(=O)N2CCOCC2)s1)Nc1ccc2c(c1)OCO2 | i | -6%
Cc1cc(Nc2cccc(O)c2)c2cccc(Br)c2n1 | -16% | -9%
CCCCN(C)c1c(C)nc2ccc(C(=O)Nc3cc(-c4ccccc4)ccc3OC)cn12 | 13% | -11%
COc1ccc(-c2sc3ccccc3c2-c2ccc(OCCN(C)C)cc2)cc1 | ? | ?
Cc1cc(=O)n(Cc2cccc(Cl)c2)c2c1c(C)nn2-c1ccccc1 | -6% | -5%
COc1ccc([C@H]2CC(=O)C[C@@H](CCn3cc(-c4cccnc4)nn3)O2)cc1 | 35%[activator] | 1%
COc1cc2c(cc1OC)CN(C(=O)c1cc(S(=O)(=O)N3CCOCC3)c(Cl)cc1Cl)CC2 | -27% | -22%
O=C(NC(=S)NCCC1=CCCCC1)c1cccnc1 | -16% | -13%
C=C(C)Cn1c(SCC(=O)c2ccccc2)nc2sc3c(c2c1=O)CCCC3 | ? | 6%
Cc1ccc(/C(O)=C2\C(=O)C(=O)N(c3cc(C)on3)C2c2cccc(Br)c2)cc1 (stereo not drawn) | · | -13%
O=C1OCc2cc(NC(=O)C34CC5CC(CC(C5)C3)C4)ccc21 | ? | ?
CCC(C)N=C1CC(C)(C)CC(=O)/C1=C(/O)Cc1ccccc1 (stereo not drawn) | i | 0%
C/C(=N\NC(=O)c1cccc(S(=O)(=O)Nc2ccccc2Cl)c1)c1ccco1 | i | -6%
CCN(C[C@H]1N[C@@](C)(C(=O)OC)[C@H]2C(=O)N(C)C(=O)[C@@H]12)C(=O)COc1ccccc1 | -23% | -14%
S=c1ncc2n[nH]nc2[nH]1 | 22% | -6%
COc1ccc(/C=c2\[nH]c(=O)/c(=C/c3ccc(OC)c(OC)c3)[nH]c2=O)cc1OC | 24% | -9%
COc1ccc(S(=O)(=O)Nc2cc3c4c(c2)CCN4C(=O)CC3)cc1OC | -14% | 0%
c1cnc2cc(-c3ccsc3)ncc2c1 | 0% | -11%
Cc1ccccc1NC(C)C(=O)N/N=C/c1c[nH]c2ccccc12 (stereo not drawn) | -19% | -9%
Cc1cc(NC(=O)Nc2cc(F)ccc2C)n(C)n1 | -11% | -5%
CCOC(=O)N1CCN(c2nc(-c3ccc(F)cc3)cs2)CC1 | -10% | -7%

In the list so far, 6 have fluorine.
SMILES | Vaccinia mCherry | Vaccinia Venus
C#CCOCCOCCOCCNc1nc(N2CCN(C(=O)C([C@@H](C)CC)n3cc(C(N)COC(=O)C(F)(F)F)nn3)CC2)nc(N2CCN(C(=O)C([C@@H](C)CC)n3cc(C(N)CC(C)C)nn3)CC2)n1 (stereo partly drawn) | i | 1%
O=C(OCc1ccccc1Cl)c1ccc(-c2nnn(Cc3ccc(F)cc3)n2)cc1 | -29% | -28%
Cc1onc(-c2c(F)cccc2Cl)c1C(=O)c1ccccc1 | i | 4%
Cc1cccc(NC(=O)C2CCN(C(=O)c3ccc(F)cc3)CC2)n1 | -13% | -2%
Cc1cc(NC(=O)Nc2cc(F)ccc2C)n(C)n1 | -11% | -5%
CCOC(=O)N1CCN(c2nc(-c3ccc(F)cc3)cs2)CC1 | -10% | -7%

Remaining list, next part.
SMILES | Vaccinia mCherry | Vaccinia Venus
FC(F)(F)c1ccc2c3n(nc2c1)CCN=C3c1ccc(Cl)cc1 | ? | -15%
CC(C)CCN1CC(C(=O)NCCC2=CCCCC2)CC1=O (stereo not drawn) | -7% | -10%
COC(=O)c1ccc(CC(=O)c2nc3ccccc3s2)cc1 | -4% | 11%
Cc1ccc(C2CC(=O)NC(SCCC(C)C)=C2C#N)cc1 (stereo not drawn) | -1% | -6%
COc1ccc(CCNC(=O)c2c(O)nc3cc(C)ccn3c2=O)cc1OC | -1% | 1%
COc1ccc(C2NC(=O)c3ccccc3N2)cc1OC (stereo not drawn) | -14% | -9%
CCc1ccc(-c2cc(C)no2)cc1S(=O)(=O)Nc1ccccn1 | -6% | -3%
CC1(C)Cc2ccccc2-c2[nH]c(=S)[nH]c(=O)c21 | i | -18%
C=CCOc1nc2c(c(=O)n(C)c(=O)n2C)n1Cc1ccc(Cl)cc1Cl | -4% | -20%
COc1ccc(-c2sc3cc(OC)c(OC)cc3c2C#CCO)cc1 | -20% | ?
Fc1ccccc1Cc1ccc(Cl)nn1 | 1% | -2%
COc1ccccc1N1CCN(C(c2ccccc2)c2nnc(-c3ccccc3Cl)o2)CC1 (stereo not drawn) | -12% | -12%
CCCC12CN(C(=O)c3ccc(OC)cc3)CC(C)(CN(C(=O)c3ccc(OC)cc3)C1)C2=O | · | 2%
NS(=O)(=O)c1ccc(NS(=O)(=O)c2ccc(NC(=O)c3ccc(-c4ccccc4)cc3)cc2)cc1 | i | -3%
CC(C(=O)OCC(=O)Nc1ccc(S(=O)(=O)N2CCCCC2)cc1)N1C(=O)c2ccccc2C1=O (stereo not drawn) | -22% | -13%
Cc1ccc2cc3c(NS(=O)(=O)c4cccc5nonc45)nn(CC(C)C)c3nc2c1 | -3% | -13%
O=C(Cc1cc(=O)[nH]c(=O)[nH]1)N1CCN(CCO)CC1 | -11% | 6%
C=CCNC(=O)COC(=O)c1ccc(Cl)c(S(N)(=O)=O)c1 | i | -5%
CCCCn1c(N)c(N(CC(C)C)C(=O)CCNC(=O)c2ccc(Cl)cc2)c(=O)[nH]c1=O | i | -10%
O=C(c1cccc(S(=O)(=O)N2CCN(c3ccc(F)cc3)CC2)c1)N1CCCC(C(F)(F)F)C1 (stereo not drawn) | ? | -28%
COc1ccc(-n2nc(C(=O)NCC(=O)NCCCN3CC(C)CC(C)C3)c3ccccc3c2=O)cc1OC (stereo not drawn) | -12% | -8%
O=C(COc1ccc([N+](=O)[O-])cc1)Nc1ccc(CN2CCOCC2)cc1 | -8% | -11%
COc1ccc(CNc2nccs2)cc1OC | i | -10%
CC1CN(C(=O)CS(=O)(=O)Cc2ccc(Cl)cc2)CC(C)O1 (stereo not drawn) | -21% | -16%
Cc1cccc(Nc2ncc3c(n2)CC(c2ccco2)CC3=O)c1 (stereo not drawn) | · | -5%
CC1CC(C)(C)CC2(C1)NC(=S)N(c1ccccc1)N2 (stereo not drawn) | · | -13%
O=C(Cn1cnc2c(oc3ccccc32)c1=O)NCCc1ccccc1 | -5% | -10%
CCn1c(C)nnc1SCC(=O)Nc1nccs1 | -1% | -7%
COc1ccc(C(=O)COC(=O)c2cc(S(=O)(=O)NCc3ccccc3)ccc2O)cc1 | i | -16%
CS(=O)(=O)Nc1ccc(C(=O)NC2CCCCC2)cc1 | -1% | -7%
CCOc1ccc(C(C(=O)NCC2CCCO2)N(C(=O)c2snc(C(N)=O)c2N)c2cccc(F)c2)cc1 (stereo not drawn) | -16% | -9%
CCCS(=O)(=O)c1nc(S(=O)(=O)c2ccc(C)cc2)c(N2CCC(O)CC2)s1 | -1%[7.34 µM] | -2%[7.34 µM]
Cc1ccc(NC(=O)C2CCN(C(=O)c3cnn(-c4ccccc4)c3-n3cccc3)CC2)cc1Cl | -14% | ?
COc1cccc(N(CC(=O)N2CCN(Cc3ccccc3)CC2)S(C)(=O)=O)c1 | i | -2%
Cc1cccnc1NC(=O)c1ccc(S(=O)(=O)N2CC(C)OC(C)C2)cc1 (stereo not drawn) | i | -7%
Cc1ccccc1NC(=O)c1ccc(F)c(S(=O)(=O)N2CCCCC2)c1 | i | -12%
COc1ccccc1Nc1cc2cc(Br)ccc2c(=O)[nH]1 | ? | ?
COc1cccc(-n2c(SCC(N)=O)nc3c([nH]c4ccccc43)c2=O)c1 | -27% | -17%
CC1(C)CC(=O)C2=C(C1)N(Cc1ccco1)C(=O)NC2(C(F)(F)F)C(F)(F)F | 0% | -9%
NC(=O)CSc1ncc2c(n1)-c1ccccc1N(Cc1ccc(Cl)cc1)S2(=O)=O | -7% | 1%
CC(C)C[C@@H](CN)NC(=O)c1nc[nH]c1C(=O)N[C@@H](Cc1ccccc1)C(=O)CNC[C@H](C)NC(=O)c1nc[nH]c1C(=O)N[C@@H](CC(=O)O)C(=O)O | i | 3%
CCC(=O)N1CCc2cc(CNC(=O)c3ccc(OC)cc3)ccc21 | i | -12%
COc1ccccc1CCNC(=O)CN1C(=O)c2ccccc2S1(=O)=O | -17% | 1%
CCS(=O)(=O)c1ccc2oc(Nc3ccc(OC)cc3)nc2c1 | -13% | -6%
O=C(NCC(c1cccnc1)N1CCN(c2ccc(F)cc2)CC1)c1ccc2c(c1)OCO2 (stereo not drawn) | · | -28%
CCOC(=O)N1CCN(C(=O)c2ccc(NS(=O)(=O)c3ccc4[nH]c(=O)[nH]c4c3)cc2)CC1 | -3% | 3%
c1ccc(N2CCN(CCCOc3ccc4c(c3)OCO4)CC2)cc1 | i | -16%
CCC(C(=O)NCC1CCCO1)N(C(=O)CNS(=O)(=O)c1ccccc1)c1ccc(F)cc1 (stereo not drawn) | -8% | 5%
O=c1oc(=O)c2ccccc2c2ccccc12 | i | -7%
Cc1ccc(S(=O)(=O)NCCNC(=O)c2ccc(C)nc2)cc1 | -16% | -8%
O=C1C=C(Nc2ccc(Cl)cc2)CC(c2ccccc2)C1 (stereo not drawn) | ? | -23%
Cc1cccc(OCc2nnc(SCC(=O)N3CCCCC3)o2)c1 | 8% | -1%
Cc1cc(C)cc(NC(=O)CCN2C(=O)c3ccccc3Sc3ncccc32)c1 | 1% | -7%
O=C(NCCSCc1ccc(Cl)cc1)c1cccs1 | 3% | 21%
Cc1cc(C)n2c(Nc3ccc4c(c3)OCCO4)c(-c3ccc(C)o3)nc2n1 | ? | -25%
CN(C)CCNC(=O)c1cccc(NS(=O)(=O)c2ccc(Cl)c(Cl)c2)c1 | i | -23%
O=C(COC(=O)c1cc(NS(=O)(=O)c2cccs2)ccc1O)Nc1ccccc1 | -17% | -11%
CC(C)c1c(O)nc(SCCN2CCOCC2)[nH]c1=O | -8% | 1%
CCN1C(=O)N(S(=O)(=O)C(F)(F)F)[C@@H](c2ccccc2)C(C(=O)OC)=C1C | -3% | -20%
CCCCNc1c(CCc2ccccc2)nc2nc(C)cc(C)n12 | -11% | -7%
CCN(CC1COc2ccccc2O1)S(=O)(=O)c1ccc(C)cc1 (stereo not drawn) | -23% | -12%
